PMP22 txn: modulators of PMP22 gene transcription in S16 Schwann cells. S16 Pmp22-F2sN Schwann cells (luciferase reporters placed in the Pmp22 gene), FLuc/NLuc coincidence luminescence, 24 h. Potency, µM (highest dose often 57.5 µM), for the others: top-dose activity change, negative = inhibition, actives largely listed as inhibitors. 2% of 43,000 active. AID 1508649; active = clear falling dose curves in both reporters; inconclusive = both reporters move, but less clearly or upward; inactive = either reporter flat; the % is the NLuc reporter signal; further: on the % scale 0 is the no-effect control and ±100 the full control effect; some results filed as inactive show a strong effect at the top dose
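S16 Schwann cells carrying FLuc/NLuc coincidence reporter in the Pmp22 3' UTR treated with compound 24 h at 37C; FLuc then NLuc luminescence read sequentially by dual-luciferase reagents.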
HTT promoter inh: HTT promoter inhibition; HEK293 HTT promoter firefly luciferase reporter (activity 0% = vehicle and -100% = no light), 24 h; Potency, µM (titrated, usually from 57.5 µM), for inactives: at the highest dose activity change, negative = inhibition, hits mostly inhibitors; 0.93% of 48,000 active; AID 1508623; active means well fitted inhibition curve with a large enough effect; inconclusive means small, poorly fitted or top-dose-only effect; inactive means no such curve, though single readings can be large or run the other way; further: nearly all actives have a fitted effect of over 50% in size
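HEK293 Fluc reporter, 2,500 cells/well, 24 h pre-culture; cpds up to 57.5 uM final, 24 h 37 degrees C; Dual-Glo, 10 min RT; normalized vehicle = 0%, zero RLU = -100%.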
* hit, by the source's call; u = inconclusive; x = not tested or not shown; [ ] = dose if it differs, or a comment. Potency means the concentration at half of the fitted maximal effect.

SMILES	PMP22 txn	HTT promoter inh
COc1ccccc1-n1c(=O)n(C)c2c(C(N)=O)nc(-c3cccc(OC)c3OC)nc21	-13.3%	-16.2%
COC(=O)C(NC(=O)CCc1c(C)nc2c(c(C)nn2-c2ccccc2)c1C)C(C)C (stereo not drawn)	1.8%	4.9%
Cc1cccc(Cn2c(-c3cccs3)nc3ccccc32)c1	5.5%	-45.2%
Nc1nc(Nc2ccccc2F)sc1C(=O)c1ccc(Cl)cc1	u	79.2%[activator]
COC(=O)COc1ccc(Oc2nc(NC(C)(C)C)nc(N3CCOCC3)n2)nn1	u	-5.1%
CCOc1ccc(C2=NC(c3cccs3)=Nc3ccc(C(C)C)cc3N2)cc1	-2.2%	3.4%
Cc1ccc(CNC(=O)CCCn2c(=O)c3ccccc3n(Cc3ccccc3C)c2=O)cc1	u	u
COc1ccc2oc(=O)c(C(=O)NCCc3c(C)[nH]c4ccc(C)cc34)cc2c1	-24.8%	u
CCc1ccc(NC(=O)CSc2ccc(-c3sc(-c4ccccc4)nc3C)nn2)cc1	-1.0%	1.0%
Cc1ccc(-c2nnc3c4ccccc4c(C)nn23)cc1NC(=O)c1cccc(Br)c1	-4.6%	-2.4%
Cc1ccc(CN2CCCn3nc(C(=O)NC(C)C)cc3C2=O)cc1	-17.8%	-3.7%
COc1ccc(NC(=O)c2ccco2)cc1NC(=O)c1ccc(C#N)cc1F	-24.9%	-8.8%
N#Cc1c(Nc2cccc(F)c2)sc(C(=O)c2ccc(Cl)cc2)c1N	-11.6%	4.1%
Cc1ccc2[nH]c(=O)c3cc(C(=O)NCCCN4CCC(C)CC4)sc3c2c1	u	-25.2%
CCCn1c(=O)n(-c2ccccc2)c(=O)c2sc3ccccc3c21	-23.6%	-20.5%
CCCCOc1ccc(-c2cc3c(=O)n(CC(=O)Nc4ccc(Cl)cc4Cl)ccn3n2)cc1	u	-8.9%
CCOc1cccc(C(=O)Nc2ccc3oc(-c4cccnc4)nc3c2)c1	31.5%	u
Cc1ccc(NC(=O)CN2C(=O)C(C)(C)c3cc(S(=O)(=O)N4CCCCC4)ccc32)c(Br)c1	u	u
CCOC(=O)c1ccc(NC(=O)CCCc2nc(-c3cc(OC)c(OC)c(OC)c3)no2)cc1	1.3%	u
Cn1c(=O)c2c(-c3ccccc3Br)n(Cc3ccccc3)cc2n(C)c1=O	u	-6.4%
Cc1ccc2c(Sc3ccc(Cl)cc3)c(C(=O)N3CCCCC3)[nH]c2c1	23.8%	-20.3%
Cc1ccc(CCNC(=O)c2ccc3c(c2)nc2n3CCCCC2)cc1	17.7%	-12.9%
Cc1ccc2c(c1)NC(=O)c1cccnc1O2	-8.6%	-15.7%
N=c1c(C(=O)NCC2CCCO2)cc2c(=O)n3ccccc3nc2n1CCCO (stereo not drawn)	-14.8%	-6.8%
O=C(CCSCc1ccc(Cl)cc1)NCCc1ccccc1	-8.9%	-4.3%
COc1ccc(OC)c(NC(=O)c2nnn(CC(=O)Nc3ccc(C(C)C)cc3)c2N)c1	-27.0%	-22.3%
Cc1ccc(-n2nc(CO)c(C(=O)NCCO)n2)cc1	5.9%	40.4%[activator]
O=c1c2sc3ccccc3c2n(Cc2ccccc2)c(=O)n1CCc1ccccc1	u	-2.0%
O=C(Cn1c(=O)n(CC2CCC(C(=O)NCCc3ccccc3)CC2)c(=O)c2ccccc21)Nc1cccc(F)c1 (stereo not drawn)	u	-7.1%
C#CCSc1nc(-c2ccccc2)c2cc(Cl)ccc2n1	7.4%	-16.0%
Oc1cc(O)c2c(c1)O[C@H](c1ccc(O)c(O)c1)[C@H](O)C2	x	11.4%
Cn1c2ccccc2c2cnn(CC(=O)NCc3ccc(Cl)cc3)c(=O)c21	-5.1%	2.3%
CC(C)Cn1nc(NC(=O)c2cccc(Cl)c2)c2cc3ccccc3nc21	-10.6%	-17.9%
COc1ccc2c(c1)cc(CNc1ccc(OC)c(OC)c1)c(=O)n2CC(=O)Nc1ccccc1C	-17.6%	-26.3%
O=C(NCc1ccco1)c1ccc2c(c1)N(Cc1ccccc1F)C(=O)c1ccccc1S2(=O)=O	0.7%	-24.6%
COc1ccc(-c2c(C#N)c(SCC(=O)Nc3ccc(C)cc3)nc(C)c2C(=O)Nc2ccccc2)cc1	14.4%	-14.8%
COc1cc(-c2noc(-c3ccc(NCC4CCCO4)c([N+](=O)[O-])c3)n2)cc(OC)c1OC (stereo not drawn)	u	-16.0%
Cc1ccc(Cl)cc1N1CCN(C(=O)c2cc3c(-c4ccccc4F)nn(C)c3s2)CC1	-5.4%	u
CCCS(=O)(=O)Nc1cccc(-c2cn3ccc(C)cc3n2)c1	-14.0%	31.6%[activator]
Cc1ccc2oc(=O)c3cc(C(=O)NCCCOC(C)C)sc3c2c1	-2.7%	5.0%

12 structures out of the list, arranged by SMILES length, smallest number first.
SMILES	PMP22 txn	HTT promoter inh
Cc1ccc2c(c1)NC(=O)c1cccnc1O2	-8.6%	-15.7%
O=C(CCSCc1ccc(Cl)cc1)NCCc1ccccc1	-8.9%	-4.3%
CCCS(=O)(=O)Nc1cccc(-c2cn3ccc(C)cc3n2)c1	-14.0%	31.6%[activator]
Cc1ccc(CCNC(=O)c2ccc3c(c2)nc2n3CCCCC2)cc1	17.7%	-12.9%
CC(C)Cn1nc(NC(=O)c2cccc(Cl)c2)c2cc3ccccc3nc21	-10.6%	-17.9%
N=c1c(C(=O)NCC2CCCO2)cc2c(=O)n3ccccc3nc2n1CCCO (stereo not drawn)	-14.8%	-6.8%
Cc1ccc2c(Sc3ccc(Cl)cc3)c(C(=O)N3CCCCC3)[nH]c2c1	23.8%	-20.3%
Cc1ccc(Cl)cc1N1CCN(C(=O)c2cc3c(-c4ccccc4F)nn(C)c3s2)CC1	-5.4%	u
COc1ccc2c(c1)cc(CNc1ccc(OC)c(OC)c1)c(=O)n2CC(=O)Nc1ccccc1C	-17.6%	-26.3%
O=C(NCc1ccco1)c1ccc2c(c1)N(Cc1ccccc1F)C(=O)c1ccccc1S2(=O)=O	0.7%	-24.6%
COc1ccc(-c2c(C#N)c(SCC(=O)Nc3ccc(C)cc3)nc(C)c2C(=O)Nc2ccccc2)cc1	14.4%	-14.8%
O=C(Cn1c(=O)n(CC2CCC(C(=O)NCCc3ccccc3)CC2)c(=O)c2ccccc21)Nc1cccc(F)c1 (stereo not drawn)	u	-7.1%

(cont.)
SMILES	PMP22 txn	HTT promoter inh
CCCN(C(=O)CCn1cnc2onc(-c3ccc(F)cc3)c2c1=O)c1ccccc1C	-22.5%	-25.1%
O=c1c2cc3c(cc2nc2sc(Nc4ccc(F)c(Cl)c4)nn12)OCO3	-6.9%	-11.2%
CCC(=O)N1CCc2cc(S(=O)(=O)NCCC(=O)NC(C)c3ccccc3)ccc21 (stereo not drawn)	27.9%	-15.1%
Cc1cnc(Nc2ccc(N3CCN(C)CC3)cc2)nc1Nc1cccc(S(=O)(=O)NC(C)(C)C)c1	x	-7.1%
COc1ccc(CNC(=O)CCCn2c(=O)c3cccn3c3ccc(F)cc32)cc1OC	u	10.2%
CCOc1ccc(C2CC(=O)c3c([nH]c(C(=O)OC4CCCCCC4)c3C)C2)cc1 (stereo not drawn)	u	-4.4%
Nc1c(C(=O)Nc2ccccc2Cl)c2ccccn2c1C(=O)c1ccccc1	15.9%	-5.4%
Cc1ccc(NC(=O)CCc2c(C)nn(-c3ccc(N4CCOCC4)nn3)c2C)c(C)c1	-12.8%	-10.4%
O=S(=O)(NCc1csc(-c2ccccc2)n1)c1cccc(F)c1	-4.8%	-9.0%
COc1cccc(Nc2nc3cc(C)ccc3nc2NS(=O)(=O)c2ccc(Cl)cc2)c1	u	u
COc1cc(Cl)c(C)cc1Nc1nc2ccccc2n2cnnc12	-12.5%	-14.4%
Cc1ccc(-n2ncc3c(NCC(C)C)ncnc32)c(C)c1	14.4%	-9.1%
COc1cccc(NS(=O)(=O)c2ccc3[nH]cc(C(=O)N(C)Cc4ccco4)c(=O)c3c2)c1	-1.9%	5.7%
O=C(Nc1cccc(C(F)(F)F)c1)Nc1ccc2snnc2c1	9.46µM*	u
CCc1ccc(NC(=O)COCc2cc(-c3ccc(F)cc3)on2)cc1	-18.2%	14.4%
CCN1CCN(c2ncnc3c2cnn3-c2ccc(C)cc2)CC1	-12.6%	10.2%
CCOCCn1ccc2c(OCC(=O)NCc3ccc(C)cc3)cccc2c1=O	u	0.0%
Cc1ccc2c(c1)N(C(=O)Nc1cccc3c1CCCC3)CC(C)O2 (stereo not drawn)	-27.9%	u
Cc1ccccc1-c1nc(CS(=O)(=O)CC(=O)NCC(C)c2ccccc2)c(C)o1 (stereo not drawn)	-20.8%	-29.0%
CCOCCCNC(=O)C1CCN(c2nc3ccc(Cl)cc3[nH]2)CC1	-1.4%	14.4%
CCCSc1ncnc2c1c(-c1ccccc1)cn2-c1ccccc1OC	u	-12.3%
N#Cc1ccc(NC(=O)c2ccc3c(c2)nnn3C2CCCC2)cc1	12.9%	-51.3%
Cc1cc(C)c(Cn2c(C)c(CNCc3ccccc3C)c(C(=O)O)c2C)c(C)c1	-36.2%	u
CC(=O)Nc1cc(NC(C)=O)cc(-c2nc3ccccc3[nH]2)c1	7.27µM*	u
CCc1nonc1NC(=O)c1oc2ccccc2c1C	-2.4%	16.6%
Cc1ccc(N2CCN(C(=O)c3c(C)oc4ncnc(N5CCOCC5)c34)CC2)c(C)c1	-27.4%	-9.7%
Cc1cc(OCC(=O)NCC2(N3CCN(C)CC3)CCCCC2)cc(C)c1Cl	u	-17.8%
CCN(CC)S(=O)(=O)c1ccc(NC(=O)[C@H](CSCc2ccccc2)N2Cc3ccccc3C2=O)cc1	-9.9%	15.9%
CCn1c(CN2CCN(C)CC2)nc2cc(NC(=O)c3ccc([N+](=O)[O-])cc3)ccc21	u	-1.1%
COc1cccc(NC(=O)Cn2c(=O)n(CCCCC(=O)NCCc3ccccc3)c(=O)c3ccccc32)c1	-20.8%	-12.1%
Cc1c(C)n(Cc2ccccc2)c2ccc(C(=O)N3CCN(c4ccccc4)CC3)cc12	-3.4%	2.2%
Cc1ccc(N(C)C(=O)c2sc3nc4n(c(=O)c3c2C)CCCC4)cc1C	-2.0%	-23.7%
Nc1ccc(S(=O)(=O)Nc2nccs2)cc1	x	2.2%
COc1ccc(/C=C/c2onc(C)c2S(=O)(=O)N2CCC(C(=O)N3CCCCC3)CC2)cc1	u	u
COc1ccc(Cl)cc1NC(=O)CN(c1cccc(C)c1C)S(=O)(=O)c1ccccc1	u	-34.4%
CCCOC(=O)c1c(C)oc2c1cc(NS(=O)(=O)c1ccc(OCC)cc1)c1ccccc12	8.91µM*	u
CC(C)CCn1c(=O)c2sccc2n2c(CCCC(=O)NCCc3ccccc3)nnc12	-21.5%	-10.6%
O=C(Nc1cccc(F)c1)C1CCN(S(=O)(=O)c2ccc3[nH]c4c(c3c2)CCCCC4)CC1	u	25.1µM*
COc1ccc(N2CCN(CC(O)COc3ccc(C)cc3C)CC2)cc1 (stereo not drawn)	u	-20.1%
O=C(O)c1ccc(NC(=O)c2ccc(Br)c(S(=O)(=O)N3CCCC3)c2)cc1	20.2%	-7.8%
Cc1ccc(Cl)cc1NC(=O)CCCn1c(=O)c2cccn2c2ccccc21	u	-6.8%
CCOC(=O)c1c(C)[nH]c(C)c1S(=O)(=O)NCC(=O)N1CCN(c2cc(Cl)ccc2C)CC1	u	u
Cc1nn(S(=O)(=O)c2ccc(C(C)C)cc2)c(C)c1S(=O)(=O)N1CCCCC1	4.8%	-8.9%
CCn1c(=O)cc(OCC(=O)N2CCN(c3cccc(C)c3C)CC2)c2ccccc21	-34.9%	u
CC(C)(C)C1CCc2nc(NC(=O)Cc3ccccc3)sc2C1 (stereo not drawn)	u	39.6%[activator]
CC(=O)Nc1nnc(SCc2cc(=O)c3cccc(C)c3[nH]2)s1	-5.4%	-1.8%
CC(=O)NC(CS)C(=O)O (stereo not drawn)	x	1.2%
COc1ccccc1NC(=O)C1=C(C)Nc2nc(SCc3ccc(Cl)cc3)nn2C1c1ccccc1Cl (stereo not drawn)	-23.6%	-17.3%
CCc1ccccc1Nc1nn2c(=O)c3ccc(C(=O)NCc4cccs4)cc3nc2s1	u	u
CCCCCCc1c(C)c2c(cc(C)c3c(C)c(C)oc32)oc1=O	-2.7%	-22.7%
Cc1ccc(CN2CCC(CNc3ncnc4onc(-c5ccc(F)cc5)c34)CC2)cc1	u	-21.1%
COc1ccc(-c2nc3scc(CCNS(=O)(=O)c4ccc(C)cc4)n3n2)cc1	-29.1%	u
Cc1ccc(S(=O)(=O)c2cc3cc(C(=O)Nc4ccc(C)cc4C)ccc3oc2=O)cc1	u	-17.9%
COc1ccc(Nc2nc3ccc(Cl)cc3nc2-n2nc(C)cc2C)cc1	-0.9%	-14.6%
Cc1cc(OCC(=O)Nc2cnn(CCCC(=O)O)c2)ccc1Cl	-2.5%	-12.3%
Cc1ccc(C(=O)Nc2nc(-c3nnn(-c4cccc(Cl)c4C)c3C)ns2)cc1C	5.2%	u
COc1cccc(NC(=O)c2sc3nc(C)c(C(=O)Nc4ccc(Cl)cc4)c(-c4ccc(Br)cc4)c3c2N)c1	-2.2%	-20.5%
Cc1ccc(-n2ncc(C(=O)NCc3cccs3)c2C2CCN(C(=O)OC(C)(C)C)CC2)cc1C	u	-30.0%
CCc1ccc(NC(=O)N2CC=C(c3c[nH]c4ccccc34)CC2)cc1	u	u
O=C(NCCc1ccccc1)c1ccc2c(c1)N(Cc1ccc(Cl)cc1)C(=O)CS2	u	u
